Bead autofluor = flagged as autofluorescent in microsphere protease counterscreen; compound autofluorescence counterscreen, microsphere flow cytometry; hits give high values; fluorescence intensity (no concentration beside the values); 360,000 tested, 3.1% active;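 active = at least 3 SD above the mean of all compounds, about 16000 in these data; inconclusive = too few beads counted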;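 note: 100 nL of 1 mM stock went into each well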
Sa RN4220 lethal = S. aureus RN4220 growth inhibition. OD600, 16 h. inhibition, % (no concentration beside the values). 330,000 tested, 0.33% active. AID 1259311;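 active = z-score of -3 or lower and OD600 up to 0.18 on both plates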;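 note: plate controls were untreated cells for no effect and reference antibiotic for full effect; stock transfer was 100 nL into about 80 µL; one replicate is shown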
Sa ugtP lethal = growth inhibition of S. aureus ugtP deletion strain. 330,000 tested, 0.54% active. growth inhibition, % (test concentration not listed). AID 1259309. S. aureus RN4220 ugtP deletion, OD600 growth, 16 h; some inactives read as strong as hits;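 active = z-score under -3 and OD600 up to 0.15 on both plates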;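 note: plate controls were untreated wells for no effect and antibiotic for full effect; wells of about 80 µL received 100 nL stock; the first replicate is given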
PrP 5UTR inh = inhibition of PrP 5' UTR reporter expression; cell-based PrP 5' UTR mRNA reporter, plate reader; inhibition, % (test concentration not listed); 340,000 tested, 0.35% active;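 active = every replicate at 50% or more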;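 note: 0 = median of the neutral control wells; tested in H4 reporter cells; numbers are from one replicate; inactives centre near -14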
Mtb hypoxia inh = inhibitors of hypoxia-regulated fluorescent reporter in Mycobacterium tuberculosis. M. tuberculosis hypoxia-regulated fluorescent reporter, fluorescence. AID 1159583. 300,000 tested, 0.1% active. fluorescence inhibition, % (no concentration beside the values);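 active = 35 to 45% if threefold the growth effect, above 45% if 1.5-fold the growth effect; inactive = the rest, general growth blockers included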;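 note: wells of about 50 µL received 100 nL stock; 0% = vehicle wells and 100% = reference inhibitor wells; whole bacteria with a GFP reporter of the hypoxia response; strong numbers were not always called active; many hits fall short of the cut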
BJeLR viability = kills HRASV12-expressing BJeLR cells. BJeLR (HRASV12) viability, CellTiter-Glo ATP luminescence, 48 h; reference of the scale not given here. inhibition, % (no concentration beside the values). 300,000 tested, 0.17% active;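 active = replicate mean above 50%; inconclusive = above 50% but judged a plate artefact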;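 note: 50 nL library stock added to about 25 µL; numbers are from one replicate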
Mtb hypoxia inh growth = further read-out of Mtb hypoxia inh, marked with its call; growth inhibition, %; measured here: M. tuberculosis growth (absorbance);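 0% = vehicle and 100% = reference antibiotic; read after six days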
Numbers without * were called inactive; ? = inconclusive; · = not tested or not shown; & = joins results of further samples. Rows were taken by chance. Share with any hit: about 4%.

SMILES	Bead autofluor	Sa RN4220 lethal	Sa ugtP lethal	PrP 5UTR inh	Mtb hypoxia inh	Mtb hypoxia inh growth	BJeLR viability
COc1ccc(NC(=O)c2cc3ccccc3[nH]2)cc1	3782	2.4	-1.8	-61.8	-2.1	2.5	-1.1
O=C(CN1C(=O)/C(=C/c2ccccc2F)Sc2ccccc21)N1CCN(c2ccccn2)CC1	2436	-1.4	2.4	-9.1	-3.9	8.2	-12.5
C=CCn1c(=O)c(C(=O)NC(C)c2ccccc2)c(O)c2ccccc21 (stereo not given)	3666	-0.6	17.3	-18.9	-1.2	6.5	18.8
CN(CC(=O)Nc1ccccc1Br)C(=O)c1ccc(-c2ccc(Cl)cc2)o1	4673	3.0	6.3	2.5	12.8	-2.4	3.1
Cc1nc2cc(NC(=O)Nc3cccc(F)c3)ccc2n1C	3323	2.6	-1.0	16.9	-1.2	-1.7	11.4
CCCCN(C(=O)c1ccc(S(=O)(=O)N(C)c2ccccc2)cc1)c1c(N)n(CCC)c(=O)[nH]c1=O	3488	-4.6	-9.5	-9.8	-6.9	2.9	·
O=C1c2ccccc2NC(c2ccccc2)N1Cc1ccco1 (stereo not given)	2957	-1.7	3.2	-16.3	7.4	7.1	5.0
CC(=O)c1cccc(OCC(=O)c2cc(C)n(-c3cc(C)on3)c2C)c1	3422	-1.6	-5.3	-10.9	·	·	-0.8
O=C(CSc1ccc2nnc(-c3ccccc3)n2n1)NCC1CCCO1 (stereo not given)	4284	2.2	-3.8	13.1	17.4	2.4	-5.5
COc1ccc(/C=C/C(=O)OCC(=O)N2CCN(S(=O)(=O)c3ccc(C)cc3C)CC2)cc1OC	3949	3.9	6.7	-16.1	6.2	2.0	·

The last four compounds of the section before open the next one:
SMILES	Bead autofluor	Sa RN4220 lethal	Sa ugtP lethal	PrP 5UTR inh	Mtb hypoxia inh	Mtb hypoxia inh growth	BJeLR viability
O=C1c2ccccc2NC(c2ccccc2)N1Cc1ccco1 (stereo not given)	2957	-1.7	3.2	-16.3	7.4	7.1	5.0
CC(=O)c1cccc(OCC(=O)c2cc(C)n(-c3cc(C)on3)c2C)c1	3422	-1.6	-5.3	-10.9	·	·	-0.8
O=C(CSc1ccc2nnc(-c3ccccc3)n2n1)NCC1CCCO1 (stereo not given)	4284	2.2	-3.8	13.1	17.4	2.4	-5.5
COc1ccc(/C=C/C(=O)OCC(=O)N2CCN(S(=O)(=O)c3ccc(C)cc3C)CC2)cc1OC	3949	3.9	6.7	-16.1	6.2	2.0	·
Oc1cccc2c3c(oc12)CCCC3	·	8.7	-6.1	·	11.3	4.5	-1.4
Cn1cnnc1SCC(=O)Nc1ccc(Cl)c(S(=O)(=O)N2CCOCC2)c1	4273	3.0	4.7	3.1	4.4	-2.0	4.5
CC(C)CN(C(=O)COC(=O)CSc1ccccc1F)c1c(N)n(Cc2ccccc2)c(=O)[nH]c1=O	6024	0.8	6.5	-17.7	-3.2	-12.4	2.7
Cc1[nH]c2ccccc2c1C(=O)C(=O)N1CC(C)OC(C)C1 (stereo not given)	5966	1.5	0.3	-6.5	0.5	-5.1	4.4
COc1ccc(C2CC(c3ccccc3)Oc3cc(OC)cc(OC)c32)cc1 (stereo not given)	·	-1.4	55.8	·	0.0	0.9	·
CCC(C)Sc1nc2c(c(=O)[nH]c(=O)n2C)n1Cc1ccccc1Cl (stereo not given)	6022	-7.2	-7.4	-1.8	7.1	8.9	1.2
Cc1sc2ncnc(N3CCC(C(=O)Nc4ccc(F)cc4Cl)CC3)c2c1C	5414	-3.7	-7.0	-27.0	-2.6	1.0	·
Cn1c(=O)c2c(ncn2CCOc2ccc(Br)cc2)n(C)c1=O	5318	2.1	12.7	-18.6	-1.0	3.6	-9.4
CC(=O)c1ccc(NC(=S)N2c3ccccc3CC2C)cc1 (stereo not given)	4730	2.4	-4.1	-21.3	2.9	0.7	3.0
O=C(COC(=O)CNC(=O)c1ccccc1)Nc1ccc(Cl)cn1	3798	3.3	1.0	-15.5	4.3	0.6	·
COc1cc(CCC(=O)N2CCN(c3ccc([N+](=O)[O-])cc3)CC2)cc(OC)c1OC	3624	1.9	11.0	-6.0	-5.4	4.7	8.5
CSc1ccc(C#N)cc1NC(=O)c1ccccc1C	4114	8.1	9.1	-13.8	11.5	5.9	-7.9
Cc1ccc(C)c(N2CCN(c3cnn(-c4nc5ccccc5s4)c(=O)c3Cl)CC2)c1	2094	0.1	-0.8	-65.4	-5.9	17.0	3.9
COc1ccc(NC(=O)CNS(=O)(=O)c2cccc3nonc23)c(OC)c1	3140	9.7	2.3	-12.5	8.5	8.2	-1.2
Oc1cccc(C(Nc2nccs2)c2ccc3cccnc3c2O)c1 (stereo not given)	3110	8.7	1.9	12.8	-4.0	3.7	35.8
CCOC(=O)c1[nH]c2ccc(Br)cc2c1NC(=O)CCN1CCC(C)CC1	3964	6.5	0.0	-10.5	2.8	8.1	3.9
O=C(NCCc1ccc(Cl)cc1)c1cnc2n(c1=O)CCS2	6120	2.6	8.3	-43.3	8.4	1.4	7.7
Cc1nn2c(-n3ccnc3)c3c(nc2c1-c1ccccc1)CCC3	10251	2.0	6.0	-8.0	4.6	8.1	2.8
CCOC(=O)C1=CCC2c3c(c4ccccc4n3C)C(=O)C1N2C(=O)OC(C)(C)C (stereo not given)	3204	-1.8&-2.3	-1.1&1.4	-7.8	-3.8&-1.9	-1.1&-3.4	·
CC(C)(C)N(Cc1ccccc1)C(=O)COc1cccnc1[N+](=O)[O-]	3938	4.5	4.2	-24.7	-3.9	0.4	3.4
O=C(O)c1cc(Br)ccc1NS(=O)(=O)c1cccc2nsnc12	3959	-1.0	2.7	-22.7	-1.1	8.0	8.2
COc1ccccc1-n1c(=O)c(C#N)c(-c2ccc([N+](=O)[O-])cc2)c2cc(C(=O)c3ccccc3O)cnc21	4844	3.7	4.3	-4.9	-10.0	7.6	16.6
Cc1c(C(=O)NCc2ccco2)oc2c(Cl)cccc12	8590	-0.1	3.8	-18.8	4.6	4.8	·
c1csc(COc2ccccc2CNC2CCCCC2)c1	2265	0.9	-6.6	-7.6	-2.4	10.1	-0.4
COc1ccc(NC(=S)N2CCC(NC(=O)c3ccccc3C)CC2)cc1	3688	2.4	8.8	-33.4	-4.2	-3.8	-2.9
CCCCC(=O)Nc1ccccc1N1CCN(c2ccc(F)cc2)CC1	3934	-2.5	13.7	-5.8	9.3	6.1	2.4
O=S1(=O)c2ccc(Br)cc2N2CCC[C@H]2CN1Cc1ccccc1	4003	12.8	-8.1	-40.2	4.5	-0.3	·
C/C(=N\N(c1ccccc1)c1ccccc1)c1ccco1	3263	·	·	-9.9	·	·	1.7
O=S(=O)(c1cccc(NC(=S)N2CCN(c3cccc(Cl)c3)CC2)c1)C(F)F	2423	-1.8	-33.6	6.8	-4.3	0.1	-0.7
O=C(c1cccc(S(=O)(=O)N2CCCCC2)c1)N(CCc1ccccc1)Cc1ccccc1	6011	-1.5	-1.6	-12.6	2.1	3.4	3.0
O=C(COC(=O)C1CC(O)CN1S(=O)(=O)c1ccc(Cl)cc1)c1ccccc1Cl (stereo not given)	2484	10.7	0.8	-13.0	-4.1	-0.3	-11.8
CCCC1=C(C(=O)OCC)C(c2sccc2C)n2ncnc2N1 (stereo not given)	3574	3.5	6.4	-10.3	3.4	1.6	8.6
O=C(Nc1ccc(S(=O)(=O)NCc2ccco2)cc1)c1ccc(F)cc1	5765	-1.4	-5.5	-7.7	-3.2	1.1	5.1
CC1CC(=O)NN=C1c1ccc(NCCO)c([N+](=O)[O-])c1 (stereo not given)	9948	1.5	2.9	2.1	5.7	3.7	-10.9
CC1(C)NC(=O)N(CC(=O)OCc2cc(=O)n3cc(Br)ccc3n2)C1=O	3905	10.1	5.0	-1.8	-0.7	1.1	-8.0
CC(=O)N1CCN(S(=O)(=O)c2cccc(C(=O)OCc3cccc(F)c3)c2)CC1	3216	4.0	7.9	-7.2	6.1	3.4	·
O=C(Nc1nc(SCc2ccc(F)cc2)ns1)c1ccco1	3961	6.9	4.1	-22.6	8.5	0.3	-1.5
COCCn1nnnc1C(c1ccc(C)cc1)N1CCN(Cc2ccc3c(c2)OCO3)CC1 (stereo not given)	3899	4.6	4.3	-5.9	·	·	2.2
CN(C)C(CNC(=O)c1ccc2ccccc2n1)c1ccccc1 (stereo not given)	3148	3.4	1.5	-7.0	2.7	0.6	11.9
CCOC(=O)C(=O)Nc1nccs1	2051	2.4	-1.9	-25.5	1.7	0.9	1.0

Single records, from the list above. Values in the order: Bead autofluor	Sa RN4220 lethal	Sa ugtP lethal	PrP 5UTR inh	Mtb hypoxia inh	Mtb hypoxia inh growth	BJeLR viability
CC(C)(C)N(Cc1ccccc1)C(=O)COc1cccnc1[N+](=O)[O-] is listed with 3938	4.5	4.2	-24.7	-3.9	0.4	3.4
Cc1ccc(C)c(N2CCN(c3cnn(-c4nc5ccccc5s4)c(=O)c3Cl)CC2)c1 is listed with 2094	0.1	-0.8	-65.4	-5.9	17.0	3.9

Next records follow:
SMILES	Bead autofluor	Sa RN4220 lethal	Sa ugtP lethal	PrP 5UTR inh	Mtb hypoxia inh	Mtb hypoxia inh growth	BJeLR viability
N#CC(=NNc1ccc(S(=O)(=O)N2CCCCC2)cc1)C(N)=S	·	15.3	-5.6	·	19.3	8.3	·
COCCNC(=O)C(C)C1C[C@]1(C)C(NC(=O)OCc1ccccc1)c1ccccc1 (stereo not given in full)	·	6.9	-0.8	·	12.1	5.4	·
CCCCP(=O)(O)c1ccccc1	?	1.5	5.6	-21.8	-2.0	1.7	7.4
CC1CCN(C(=O)CN2C(=O)NC3(CCCc4ccccc43)C2=O)CC1 (stereo not given)	4804	4.8	11.0	-10.1	9.9	-7.9	·
CCOc1ccccc1N(CC(=O)NC1CCCC1)C(=O)CCC(=O)Nc1cc(C)on1	3904	1.9	0.5	-13.5	13.7	12.7	0.9
CCOC(=O)c1c(NC(=O)Nc2ccc(Cl)cc2)sc(C)c1C	27117*	7.9	6.2	-12.0	-10.5	21.9	16.1
CCC(C(=O)NC1CCCC1)N(C(=O)Cn1nnc(-c2ccc(C)o2)n1)C(C)(C)C (stereo not given)	11247	3.5	-1.4	-14.0	7.7	12.9	-0.9
O=C(C1CC(=O)N(C2CCCCC2)C1)N1CCC2(CC1)OCCO2 (stereo not given)	·	11.9	4.9	-16.3	-7.6	9.9	-11.4
CCN(CC)C(=O)CC(c1ccc(N(C)C)cc1)c1c(OC)cc(OC)c2c(-c3ccccc3)cc(=O)oc12 (stereo not given)	4718	35.9	-3.7	-12.8	4.5	7.2	-0.7
COc1ccc(C(=O)Nn2c(SCc3ccc([N+](=O)[O-])cc3)nc3ccccc3c2=O)cc1	3331	1.9	-13.7	10.7	3.1	1.9	2.3
O=[N+]([O-])c1ccc(Nc2nc(N3CCOCC3)nc(N3CCOCC3)n2)cc1	4321	2.0	-0.4	-10.8	-10.8	-2.6	0.8
O=C(NCc1ccco1)c1ccc(CS(=O)(=O)c2cccc(C(F)(F)F)c2)o1	22579*	3.4	-1.0	-11.7	3.4	4.6	0.8
O=[N+]([O-])c1ccn(-c2nc(-c3cccs3)cc(C(F)(F)F)n2)n1	4049	0.6	-0.5	-14.4	15.2	7.3	8.2
COc1ccccc1NC(=O)CSc1nnc(CC(=O)Nc2ccccc2C)n1C	3838	0.1	14.2	-10.8	9.4	-3.2	1.9
CN(C)N=Cc1ccc(P(c2ccc(C=NN(C)C)o2)c2ccc(C=NN(C)C)o2)o1	·	6.7	12.8	·	9.4	-2.0	·
CC1CN(c2nc3ccccc3nc2C(C#N)C(=O)NCc2ccc3c(c2)OCO3)CC(C)O1 (stereo not given)	2384	13.6	10.1	32.9	-0.3	0.0	-3.0
O=C(NC12CC3CC(CC(C3)C1)C2)N1CCN(c2ccccn2)CC1	7832	0.9	-4.7	-31.2	8.3	3.2	6.5
COC(=O)Nc1ccc(C)c(NC(=O)OC)c1	10182	1.1	-0.3	-21.9	14.3	2.9	-1.6
Cc1cc(C(=O)NN=Cc2ccncc2)c(C)o1	·	-0.3	2.8	·	-0.1	-1.2	·
COc1ccc(CN2CCNC(=O)C2CC(=O)N(C)Cc2nccs2)cc1OC (stereo not given)	5651	5.4	4.8	-3.3	12.9	3.4	-0.4
CCOC(=O)Cn1c(C)c(Br)c(=O)c2cccc(C)c21	4672	1.0	15.5	-31.7	·	·	10.7
CC1(C)CC(CCNCc2ccc3c(c2)OCO3)(Cc2ccccc2)CCO1 (stereo not given)	3568	2.1	-9.4	-11.0	4.6	7.4	6.7
COc1ccc(C=NNC(=O)C(=CNc2nccc(C)n2)NC(=O)c2ccccc2)cc1	·	2.7	-4.8	·	6.6	12.1	·

Source: PubChem (several laboratories)
